# BJeLR lethal: MLPCN primary cell-based screen for lethality selective to Ras in HRASV12 cells; BJeLR (HRASV12) viability, CellTiter-Glo ATP luminescence, 48 h; reference of the scale not given here; hit rate 0.17% among 300,000; AID 1554, 2009; inhibition, % (concentration not given with the values);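 active = replicate mean above 50%; inconclusive = above 50% but judged a plate artefact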;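 also: 50 nL library stock added to about 25 µL; numbers are from one replicate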
# Sa ugtP lethal: growth inhibition of ugtP-null S. aureus, primary screen, RN4220 ugtP deletion, OD600 | 16 h; some inactives read as strong as hits | growth inhibition, % (test concentration not listed) | hit rate 0.54% among 330,000;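 active = z-score under -3 and OD600 up to 0.15 on both plates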;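 also: plate controls were untreated wells for no effect and antibiotic for full effect; wells of about 80 µL received 100 nL stock; the first replicate is given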
# Mtb hypoxia rep: PubChem AID 1159583; M. tuberculosis hypoxia-regulated fluorescent reporter, fluorescence; fluorescence inhibition, % (no concentration beside the values); hit rate 0.1% among 300,000;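 active = 35 to 45% if threefold the growth effect, above 45% if 1.5-fold the growth effect; inactive = the rest, general growth blockers included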;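 also: wells of about 50 µL received 100 nL stock; 0% = vehicle wells and 100% = reference inhibitor wells; whole bacteria with a GFP reporter of the hypoxia response; strong numbers were not always called active; many hits fall short of the cut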
# Sa RN4220 lethal: growth inhibition of S. aureus RN4220, primary screen, OD600 | 16 h | inhibition, % (concentration not given with the values) | hit rate 0.33% among 330,000;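 active = z-score of -3 or lower and OD600 up to 0.18 on both plates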;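 also: plate controls were untreated cells for no effect and reference antibiotic for full effect; stock transfer was 100 nL into about 80 µL; one replicate is shown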
# Bead autofluor: flagged as autofluorescent in microsphere protease counterscreen; compound autofluorescence counterscreen, microsphere flow cytometry; active compounds read high; fluorescence intensity (concentration not given with the values); hit rate 3.1% among 360,000;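 active = at least 3 SD above the mean of all compounds, about 16000 in these data; inconclusive = too few beads counted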;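 also: 100 nL of 1 mM stock went into each well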
# PrP UTR inh: inhibition of PrP 5' UTR reporter expression; cell-based PrP 5' UTR mRNA reporter, plate reader; inhibition, % (no concentration beside the values); hit rate 0.35% among 340,000; AID 488862, 2010;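 active = every replicate at 50% or more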;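 also: 0 = median of the neutral control wells; tested in H4 reporter cells; numbers are from one replicate; inactives centre near -14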
# Mtb hypoxia rep growth: further read-out of Mtb hypoxia rep, marked with its call; growth inhibition, %; measured here: M. tuberculosis growth (absorbance);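 0% = vehicle and 100% = reference antibiotic; read after six days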
# * = called active by the depositor; ? = inconclusive; nt = no result given. Rows are unselected, and some 4% of all compounds hit somewhere here.
SMILES,BJeLR lethal,Sa ugtP lethal,Mtb hypoxia rep,Mtb hypoxia rep growth,Sa RN4220 lethal,Bead autofluor,PrP UTR inh
O=C(C1=C[C@H](c2ccc(Br)cc2)C[C@H](OCCCCO)O1)N1CCOCC1,-1,nt,nt,nt,nt,3891,-6
O=C(O)CCCCCNC(=O)CCn1cnc2ccccc2c1=O,9,5,8,10,3.9,5282,-9
CC(=O)Nc1nnc(-c2ccc(Cl)s2)o1,3,7,14,6,0.8,4249,-29
O=C1CCc2cc(S(=O)(=O)N3CCCC3C(=O)N3CCN(c4ccccc4)CC3)ccc2N1 (configuration not stated),-16,-4,1,13,-4.4,6041,-9
O=c1cc(-c2ccccc2O)nc(-c2ccccc2)[nH]1,0,1,16,9,1.3,6593,-16
COC(=O)c1ccccc1OCC(=O)N1CCN(c2ccc(F)cc2)CC1,1,5,6,-1,-3.1,5779,-7
CCCOc1cccc(C(=O)Nc2ccccc2C(=O)N2CCN(C)CC2)c1,6,4,7,7,1.6,6704,-6
S=C(Cc1cccnc1)N1CCOCC1,10,nt,nt,nt,nt,2042,-11
COc1cccc(C2C(C(=O)Nc3ccccc3)=C(C)N=c3s/c(=C/c4ccc(OCC(=O)O)cc4)c(=O)n32)c1 (configuration not stated),10,nt,nt,nt,nt,2432,-38
O=C(Nc1cccc2ccccc12)N1CCN(Cc2ccc3c(c2)OCO3)CC1,2,1,-6,0,-0.8,8735,-14
Cc1ccc(S(=O)(=O)Nc2cccc3c2O[C@H](CN(C)C(=O)Nc2ccc(C(F)(F)F)cc2)[C@@H](C)CN([C@H](C)CO)C3=O)cc1,nt,2,-1,2,-2.1,3862,0
CCOc1ccccc1NC(=O)CSc1nnc(-c2ccco2)o1,-2,6,11,7,5.4,4185,-32
O=C(NCc1ccccn1)C(=O)NCC1OCCCN1S(=O)(=O)c1cc(F)ccc1F (configuration not stated),-6,14,9,-3,3.8,4532,9
CCN(CC)CCn1c(=S)[nH]c2cc(C(=O)N3CC(C)CC(C)C3)ccc2c1=O (configuration not stated),3,1,-5,-6,-2.0,5025,-13
COc1cc(C(=O)OCC(=O)Nc2cc(C)on2)ccc1OCc1ccccc1Cl,12,-2,nt,nt,2.3,4742,-37
CCN1C(=O)[C@H]2[C@@H](c3ccc(-c4ccc(OC)cc4)cc3)N3CCCC[C@@]3(C(=O)OC)[C@H]2C1=O,-8,nt,nt,nt,nt,4152,-21
Cc1ccc(C(=O)c2cc3c(cc2[N+](=O)[O-])OCCO3)cc1,4,-4,-9,6,8.9,4701,-10
O=C(NCC1CCCO1)c1ccc2c(=O)n(CC3CCCO3)c(=S)[nH]c2c1 (configuration not stated),-4,4,19,7,0.5,2997,-15
Cc1ccc(C2CC(=O)C(C=NCCN3CCN(C(=O)Cc4ccccc4)CC3)=C(O)C2)cc1 (configuration not stated),-7,-1,-2,-3,1.6,8903,-23
OCC1OC(n2nnc3ccccc32)C(O)C(O)C1O (configuration not stated),3,1,-1,4,7.6,3813,-17
COc1cc(NC(=O)c2ccccc2)c(C)cc1NC(=O)CC(CC(=O)O)c1ccccc1 (configuration not stated),-6,6,4,-6,3.5,2963,-29
COc1ccc(CCNC(=O)C(=O)NCC2OCCN2S(=O)(=O)c2ccc3c(c2)OCCO3)cc1 (configuration not stated),2,5,5,3,-1.2,4876,-21
O=C(Cc1ccc(Br)cc1)Nc1ccccc1Sc1ccccc1,-7,-11,4,-6,1.8,8699,-13
O=C(CNC(=O)c1cccs1)NCCN1CCC(Cc2ccccc2)CC1,3,3,12,7,2.4,nt,nt
CC1(C)Cc2c(c(-c3ccco3)[nH]c(=O)c2C#N)CO1,6,1,12,12,0.2,4690,-12
CCCN(C(=O)CSc1nc(C2CC2)n(-c2ccccc2)n1)C1CCS(=O)(=O)C1 (configuration not stated),nt,-4,0,-5,-1.2,2904,-9
COCCCN1C(=O)c2ccc(C(=O)NCc3ccco3)cc2C1=O,4,-4,11,6,-8.6,3429,-32
COC(=O)c1ccc(-c2sc3nc(N4CCOCC4)c4c(c3c2N)CC(C)(C)OC4)o1,-6,8,nt,nt,4.2,2350,-8
Cc1cccc(NC(=O)c2ccco2)c1C,-1,-2,7,11,-2.7,3411,-2
Cc1ccc2cc(CCNC(=O)C(C)C)c(=O)[nH]c2c1C,-15,5,3,1,1.4,5248,-34
CCc1cc(C(=O)NC(C)C2CCCO2)cs1 (configuration not stated),-5,2,nt,nt,0.8,6538,-24
O=C(COC(=O)C1CCC(=O)N1)Nc1cc(Cl)ccc1Cl (configuration not stated),1,2,8,3,2.6,2035,3
COc1ccccc1C(=O)NN=C(C)CC(=O)Nc1ccccc1NC(C)=O,nt,2,-6,-6,3.0,nt,nt
CC1(O)N(Cc2ccccc2)C(=O)OC12CCCCC2 (configuration not stated),-7,-9,-5,1,-3.7,11047,-27
O=C(COC(=O)CN=C1NS(=O)(=O)c2ccccc21)Nc1ccccc1OC(F)F,-5,3,12,1,2.8,5215,12
CCCCn1c(CN(C)Cc2ccccc2)nc2c1c(=O)n(C)c(=O)n2C,13,-12,-4,11,2.1,19708*,-10
CCCc1nc(SCC(=O)Nc2nnc(SCC)s2)c2c(=O)n(C)c(=O)n(C)c2n1,10,1,2,1,-5.7,4413,3
Cc1cccc(C(=O)NNC(=O)C23CC4CC(CC(C4)C2)C3)c1O,1,5,4,-3,5.1,6620,-9
CC(=O)c1c(C)nc(-c2ccc(OCC(=O)Nc3ccc(F)cc3)cc2)n1O,-4,7,2,15,-0.2,3451,-21
C=CCn1c(SCC#N)nc2c(c1=O)C(C)(C)Cc1ccccc1-2,0,3,nt,nt,5.3,2899,-17

# Three entries drawn at random from the list so far:
SMILES,BJeLR lethal,Sa ugtP lethal,Mtb hypoxia rep,Mtb hypoxia rep growth,Sa RN4220 lethal,Bead autofluor,PrP UTR inh
COc1ccccc1C(=O)NN=C(C)CC(=O)Nc1ccccc1NC(C)=O,nt,2,-6,-6,3.0,nt,nt
CC1(O)N(Cc2ccccc2)C(=O)OC12CCCCC2 (configuration not stated),-7,-9,-5,1,-3.7,11047,-27
CCCc1nc(SCC(=O)Nc2nnc(SCC)s2)c2c(=O)n(C)c(=O)n(C)c2n1,10,1,2,1,-5.7,4413,3

# Quoted from the listing:
# Entry for CCCOc1cccc(C(=O)Nc2ccccc2C(=O)N2CCN(C)CC2)c1 under PrP UTR inh: -6
# Entry for O=c1cc(-c2ccccc2O)nc(-c2ccccc2)[nH]1 under PrP UTR inh: -16
# Entry for Cc1cccc(C(=O)NNC(=O)C23CC4CC(CC(C4)C2)C3)c1O under BJeLR lethal: 1
# Entry for Cc1ccc2cc(CCNC(=O)C(C)C)c(=O)[nH]c2c1C under Bead autofluor: 5248

# Further results
SMILES,BJeLR lethal,Sa ugtP lethal,Mtb hypoxia rep,Mtb hypoxia rep growth,Sa RN4220 lethal,Bead autofluor,PrP UTR inh
Cc1cc(C)cc(N(CC(=O)NC2CCCC2)C(=O)CCC(=O)Nc2cc(C)on2)c1,-8,-1,0,-7,6.2,3080,-10
CCOC(=O)c1c[nH][nH]c1=O,-2,6,8,-7,-1.0,4269,-25
Cc1ccc(NC(=O)CSc2nnc(CNC(=O)c3cccs3)o2)c(C)c1,0,2,5,2,0.7,2000,-3
CCOc1ccc(N2CC(C(=O)Nc3ccc(S(=O)(=O)Nc4nccs4)cc3)CC2=O)cc1 (configuration not stated),1,5,24,23,6.4,3510,-16
CS(=O)(=O)c1nc(-c2ccc(Br)cc2)n[nH]1,-20,4,-15,13,2.6,3228,4
CCCN(CCC)CCCNC(=O)c1cc2c(=O)n(C)c3ccccc3c2n1C,-7,6,nt,nt,0.0,5516,-12
COc1ccc(NC(=O)O/N=C/c2ccc(Br)cc2)cc1,9,nt,nt,nt,nt,4571,-19
C#Cc1ccc(CN2CCN(CCc3ccccc3)C(CCO)C2)cc1 (configuration not stated),-2,3,-6,-8,-1.5,4076,-12
Cc1[nH]c2ccccc2c1C(=O)COC(=O)c1ccc([N+](=O)[O-])s1,1,96*,2,9,90*,4540,-41
CC1CN(C(=O)c2ccc(COCC(F)(F)F)o2)CC(C)O1 (configuration not stated),13,14,11,7,5.0,8872,-36
Cc1cccc(OC(=O)Cn2c(C(F)(F)F)nc3ccccc32)c1,2,6,nt,nt,2.0,2764,-11
CN(CCN(C)C(=O)c1[nH]cnc1C(=O)Nc1ccccc1)C(=O)c1[nH]cnc1C(=O)Nc1ccccc1,nt,2,2,0,8.2,3831,-23
Nc1nnc(-c2cccc([N+](=O)[O-])c2)s1,-3,15,2,0,8.2,4259,-19
O=C(CN(Cc1cccs1)C(=O)CNS(=O)(=O)c1ccc(Cl)cc1)NCC1CCCO1 (configuration not stated),-5,11,7,6,3.7,4518,-13
CCOC(=O)c1cnn(-c2cc(Oc3ccccc3)ncn2)c1N,-2,-1,3,0,-11,2279,-27
COc1ccc(S(=O)(=O)N2CCC(C(=O)N[C@H](C(=O)NCc3ccncc3)C(C)C)CC2)cc1,0,2,-1,4,2.8,6013,-1
CCCn1cnnc1CNC(=O)C1CCC(=O)N(CCc2ccc(OC)cc2)C1 (configuration not stated),13,8,13,1,3.3,6204,-20
O=C(Nc1ccc2nc(N3CCOCC3)sc2c1)c1ccc(F)cc1,nt,-6,6,7,2.1,7747,-65
CC(=O)NCCc1nc2cc(NS(=O)(=O)c3ccccc3)ccc2n1C,7,1,15,5,0.4,3937,-12
O=C(Nc1ccccn1)C1CCN(C(=O)Nc2ccccc2)CC1,7,8,-1,8,-0.1,nt,-1
Cn1c(=O)[nH]c(=O)c2c1nc(SCCN1CCCCC1)n2CCCc1ccccc1,nt,0,nt,nt,3.3,3650,-16
Cc1cccn2c(=O)c3cc(C(=O)NCCc4ccccc4)c(=N)n(CCCn4ccnc4)c3nc12,4,5,nt,nt,-17,3428,-20
COc1ccc(CCN2C(=O)CC(NNC(=O)c3cccc(O)c3)C2=O)cc1 (configuration not stated),0,2,-7,3,2.7,6593,-22
CCn1c2ccccc2c2cc(NC(=O)COC(=O)c3ccccc3Br)ccc21,0,22,13,6,5.2,2031,-12
CC1CCCCN1C(=O)c1ccc(S(=O)(=O)N2CCCCC2C)cc1 (configuration not stated),0,-18,3,7,-15,3000,-15
CN(C)C(=O)N1CCC(C(=O)N2CCCC(C(=O)c3cccc4ccccc34)C2)CC1 (configuration not stated),5,7,-3,0,13,3923,-13
CCCC1OC23CCCCC2C(C#N)(C(=N)O3)C1(C#N)C#N (configuration not stated),2,2,8,13,4.8,?,-17
O=C1CC(Cc2ccc(Cl)cc2)C(=O)N1c1ccccn1 (configuration not stated),-6,9,nt,nt,3.5,3357,-5
O=C(COC(=O)/C=C/c1ccc(C(F)(F)F)cc1)NCCC1=CCCCC1,8,10,9,2,4.6,nt,-20
O=S(=O)(c1ccc2c(c1)OCCO2)N1CCCN(S(=O)(=O)c2c(F)cccc2F)CC1,nt,6,5,9,3.2,3702,-10
CC(=O)N1CCN(C2=NC(=O)/C(=C/c3ccc(OS(=O)(=O)c4ccccc4)cc3)S2)CC1,7,-8,2,-7,1.3,5518,-14
COc1ccc(C(CNC(=O)c2ccc3c(c2)CCC3)N(C)C)cc1 (configuration not stated),2,6,0,-1,0.1,6070,-36
Cc1cccc(C(=O)Nc2cc(C)ccc2NC(=O)COc2ccccc2)c1,0,-22,16,5,-8.1,2224,-17
O=C(Nc1ccc(Cl)cc1)NC1CCCCNC1=O (configuration not stated),-7,2,2,-1,2.7,6060,nt
CCCCNC(=O)Cn1c2c(c(-c3ccccc3Cl)cc1=O)CCC2,-5,11,1,1,20,5987,-8
CCOC(=O)c1c(-c2ccccc2)oc2ccc(OCC(O)CNCCN(C)C)cc12 (configuration not stated),26,9,22,12,-4.2,4282,-18
Cc1ccc(-c2cc(N)n(-c3ccc(C)cc3)n2)cc1,16,4,14,8,-4.2,3951,-44
CCN(CC)CCNC(=O)Cn1nc(-c2ccc(C)cc2)ccc1=O,2,3,-3,-22,-1.5,10153,-11
CC(C)C(C)NC(=O)CSc1nnc(-c2c[nH]c3ccccc23)o1 (configuration not stated),5,12,2,10,5.7,3300,-10
O=C(NC1CCCCC1)C(=O)N(Cc1cccnc1)C(C(=O)NCc1ccco1)c1ccccc1 (configuration not stated),21,2,7,5,5.3,nt,nt
C=CCc1cc(Cl)ccc1OCCN(C)C,-3,0,9,0,2.8,8076,-4
COC(=O)c1sccc1NC(=S)Nc1ccc(F)cc1,-4,8,3,9,4.5,9519,-42
